# From PubChem BioAssay
# 2A firefly: Primary qHTS Assay for Foot and Mouth Disease Virus Antivirals against NCGC Sytravon and CBC Compound Libraries: Firefly Luciferase Signal; HEK cells with a luciferase reporter of 2A StopGo recoding; Potency, µM (doses to about 57.5 µM), without a hit: at the top dose signal change, negative = less light; 0.23% of 120,000 active; active = well fitted falling curve with a large enough effect; inconclusive = small, poorly fitted or top-dose-only effect; inactive = no such curve, though single readings can be large or run the other way; also: nearly all actives have a fitted effect of over 60% in size; overnight with compound
# 2A Renilla: Primary qHTS Assay for Foot and Mouth Disease Virus Antivirals against NCGC Sytravon and CBC Compound Libraries: Renilla Luciferase Signal; Potency, µM (series often up to 57.5 µM), without a hit: top-dose signal change, negative = less light; HEK cells with a luciferase reporter of 2A StopGo recoding; 0.32% of 120,000 active; active means well fitted falling curve with a large enough effect; inconclusive means small, poorly fitted or top-dose-only effect; inactive means no such curve, though single readings can be large or run the other way; also: nearly all actives have a fitted effect of over 55% in size; overnight with compound
# Starred values were filed as active, the others as inactive; ? = inconclusive; [ ] = dose if it differs, or a comment. % is scaled to controls: 0 for no effect and ±100 for the full control effect; potency is read from the fitted curve at half-maximal effect. Not all compounds are listed; count on the stated rates, not on these rows.
SMILES	2A firefly	2A Renilla
O=C(CCc1nnc2ccc(NCc3ccc(Cl)cc3)nn12)NCc1ccc(Cl)cc1	5%	10%
CCN1C(=O)c2ccccc2Sc2ccc(NC(=O)c3cccc(C)c3)cc21	-3%	11%
CCCCn1cnc2c1c(=O)n(CC(=O)Nc1ccccc1OC)c(=O)n2CCCC	-12%	-13%
O=C(CCC1CCCC1)OCC(=O)c1ccc2c(c1)OCO2	-1%	-5%[1.06 µM]
O=C(NCC(c1ccc2c(c1)OCO2)N1CCOCC1)c1ccccc1F (configuration not stated)	119%[activator]	50%[activator]
CCN(CC)c1ccc(C(=O)NCc2ccc3c(c2)CCN3C(=O)c2cccc(C)c2)cc1	-19%	-17%
CCOc1ccccc1Oc1coc2cc(OCC(=O)O)ccc2c1=O	0%	6%
CCOc1ccc(NC(=O)c2ccc3c(c2)nnn3C2CCCC2)cc1	27%	10%
Cc1ccc(NC(=O)c2cc(S(=O)(=O)N3CCCC3)c[nH]2)c(C)c1	-19%	2%
O=C(CCc1nc2ccccc2s1)NC1CCCCC1	85%[activator]	-2%
CCCN(CC1CC1)C(=O)COC(=O)c1csc(NCc2ccccc2)n1	-10%	-14%
CCn1c(C(=O)NCc2ccccc2Cl)cc2sc(Cl)cc21	?	0%
COc1ccc(Cn2ccc3nc(C)c(C(=O)NCc4ccc(SC)cc4)cc3c2=O)cc1	-17%	-8%
CC(C)(C)C(=O)/C=c1/[nH]c(=O)/c(=C/c2ccccc2OC(F)F)s1	0%	60%[activator]
CCCN(CCC)C(=O)C1CCCN(S(=O)(=O)c2cc(Br)cc3c2N(C(=O)CC)CC3)C1 (configuration not stated)	-12%	11%
COc1ccc(C(=O)N(Cc2ccc(N(C)C)cc2)CC2CCCO2)cc1 (configuration not stated)	-12%	67%[activator]
CCOc1ccc(NS(=O)(=O)c2ccc(Cl)c(C(=O)Nc3ccc4oc(C)nc4c3)c2)cc1	10%	69%[activator]
O=C(OCc1ccccc1F)c1ccc(-c2nnn(Cc3ccccc3)n2)cc1	8%	-5%
Cn1c(=O)c2c(ncn2Cc2ccc(F)cc2Cl)n(C)c1=O	-28%	?
Cc1ccc(-c2cc(C(=O)O)c3ccccc3n2)s1	129%[activator]	-13%
O=C(NC1(C(F)(F)F)N=C(c2ccccc2)N(Cc2ccccc2)C1=O)c1ccc(F)cc1 (configuration not stated)	-13%	6%
COc1cccc(CCN[C@H]2CS(=O)(=O)C[C@@H]2S(=O)(=O)c2ccc(F)c(C)c2)c1	0%	-14%
O=C(NN=C(/C=C/c1ccccc1)/C=C/c1ccccc1)c1cccs1	89%[activator]	10%
COc1ccc(CNC(=O)COC(=O)c2ccc(OC)c(S(=O)(=O)N3CCCCCC3)c2)cc1	21%	9%
CCN(CC)S(=O)(=O)c1ccc(Cl)c(C(=O)NC(C)c2cc3ccccc3o2)c1 (configuration not stated)	-14%	17%
COP(=O)(OC)c1nc(-c2ccc(C(C)(C)C)cc2)oc1NCc1ccco1	-11%	0%
Cc1cc(C)c2c(=O)cc(C(=O)Nc3ccccc3F)oc2c1	0%	-12%
CCc1ccccc1NC(=O)C1CCN(c2cnccn2)CC1	-14%	-6%
COc1ccc(-c2c(C)nn3c2ncc2c(=O)n(-c4ccc(NC(C)=O)cc4)ccc23)cc1	3%	-5%
CCn1nnc2cc(C(=O)Nc3cccc(Cl)c3C)ccc21	129%[activator]	32%[activator]
Cn1c(=O)c2sccc2n2c(CCCC(=O)Nc3ccc(F)c(F)c3)nnc12	-14%	-1%
CC(=O)NC(Cc1c[nH]c2ccccc12)C(=O)NNC(=O)CSc1nc2ccccc2s1 (configuration not stated)	17%	-1%
Cc1cc(C)n(-c2nc(-c3ccccc3)cc(=O)n2CC(=O)Nc2cccc(C)c2C)n1	10%	0%
CCc1cccc2c(C(=O)CSc3n[nH]c(C(C)C)n3)c[nH]c12	8%	-12%
COC(=O)c1ccc(Cn2nnc3c(=O)[nH]c(C4CCCN(S(=O)(=O)c5ccccc5)C4)nc32)cc1 (configuration not stated)	-14%	-11%
N#Cc1ccc(NC(=O)CCNC(=O)c2ccccc2)c(C(F)(F)F)c1	23%	-2%
Cc1cc(C(F)F)n2nc(C(=O)Nc3cccc(Cl)c3C)nc2n1	5%	0%
c1ccc(-c2cnc(CSc3nnc(-c4ccccc4)o3)o2)cc1	14%	-4%
CO[C@@]1(NC(=O)C(C(=O)O)c2ccc(O)cc2)C(=O)N2C(C(=O)O)=C(CSc3nnnn3C)CO[C@@H]21 (some centres not stated)	16%[11.5 µM]	5%
CCc1ccc(NC(=O)CSc2cn(CC(=O)N3CCOCC3)c3ccccc23)cc1	18%	-8%
O=C(CCc1ncc(-c2ccccc2F)o1)Nc1ccccn1	63%[activator]	1%
FC(F)(F)c1ccc(CCNC(=S)NC2CC3CCC2C3)cc1 (configuration not stated)	?	-9%[1.06 µM]
CNCCCNC(=O)/C=N/O	12%	13%
CCc1cccc(C)c1NC(=O)c1cc(S(=O)(=O)N2CCCCCC2)cn1C	-16%	25%
CCOC(=O)C(=O)CC(=O)c1ccc(Cl)c(Cl)c1	-11%	-5%
Cc1cc(C)c2ccc(C(=O)O)cc2n1	-2%	-6%
CCc1ccccc1NC(=O)Nc1cc(C(=O)NCc2ccc(C(C)C)cc2)ccc1N1CCCC1	8%	7%
Cn1c(C(=O)N2CCC(NC(=O)c3ccncc3)CC2)cc2ccccc21	-7%	-17%
Cc1ccccc1-c1noc(CSc2nc(C)c(C)n2C2CCCC2)n1	47%[activator]	22%
CCCCCn1nc(C(=O)N(CCC(=O)OCC)CC2CC2)c2ccccc2c1=O	-3%	-7%
NC(=O)C1(N2CCCCC2)CCN(C(=O)Nc2ccc(C(F)(F)F)cc2)CC1	26%	-6%
Cc1c(Cl)cccc1NC(=O)Cn1cnc2c1c(=O)n(C)c(=O)n2C	50%[activator]	27%
Cc1ccc(CNc2nc(N)c([N+](=O)[O-])c(Nc3cccc(Cl)c3)n2)cc1	9%	11%
CC(C)C/C=N/NC(=O)c1ccccc1	210%[activator]	12%
O=C(CCc1cccnc1)Nc1cccnc1	4%	-5%
N#CC1=C(N)OC2=C(C(=O)CC(c3ccccc3)C2)C1c1cccc(Cl)c1 (configuration not stated)	-13%	0%
O=C(Cn1cnc2sc3c(c2c1=O)CCCC3)NCCC(=O)N1CCC(Cc2ccccc2)CC1	32%[activator]	-15%
N#C/C(=C/c1ccc(OCc2ccccc2C#N)cc1)c1cccc(F)c1	0%	37%[activator]
Cc1ccccc1C(=O)N(Cc1nc(-c2ccc(Cl)cc2)no1)C(C)C	-38%	?
COc1ccc(C(=O)C(C)Oc2ccc(C)c(C)c2)cc1 (configuration not stated)	37%	21%
COc1cccc(-n2cc(C(=O)O)c3c2C(c2cccc(OC)c2OC)CC(=O)N3)c1 (configuration not stated)	96%[activator]	42%[activator]
Cc1cccc(C)c1NC(=O)CCn1cnc2c1c(=O)n(C)c(=O)n2C	-4%	-9%
